# N370S GC: inhibitors or activators of N370S glucocerebrosidase for Gaucher disease; N370S GC spleen homogenate, 4MU-glucoside fluorescence; Potency, µM (highest dose often 59.4 µM), inactives show at the top dose activity change, negative = inhibition, hits mostly inhibitors; 330,000 tested, 0.092% active;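 also: 0% = full enzyme activity and -100% = no enzyme basal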
# FEN1 inh: human FEN1 inhibition. AID 588795. P39748. 390,000 tested, 0.35% active. Potency, µM (series often up to 114 µM), for the others: at the top dose activity change, negative = inhibition, usual class: inhibitors. Recombinant FEN1 flap cleavage, fluorescence, 15 min; also: nearly all actives have a fitted effect of over 65% in size
# Target sequence (P39748 whole entry, looked up): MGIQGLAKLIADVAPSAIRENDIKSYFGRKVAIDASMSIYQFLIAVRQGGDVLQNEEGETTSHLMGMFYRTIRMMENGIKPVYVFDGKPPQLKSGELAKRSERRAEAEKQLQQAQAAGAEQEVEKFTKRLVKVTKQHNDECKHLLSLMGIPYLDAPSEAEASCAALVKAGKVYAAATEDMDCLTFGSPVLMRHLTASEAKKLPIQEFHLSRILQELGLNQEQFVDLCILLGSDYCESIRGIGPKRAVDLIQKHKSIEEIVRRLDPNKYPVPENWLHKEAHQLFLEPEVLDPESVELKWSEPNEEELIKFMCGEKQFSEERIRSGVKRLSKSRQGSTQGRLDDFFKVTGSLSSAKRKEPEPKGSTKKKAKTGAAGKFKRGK
#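 Concentration–response screening of FEN1 (10 nM): 15 min compound preincubation at room temperature, reaction started with 50 nM substrate and read at 0 and 15 min. Corrected, normalized data were fitted by a four-parameter Hill equation.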
# * hit, by the source's call; ? = inconclusive; . = no result given; & = joins results of further samples. Calls follow the shape of the dose curve; as a rule, active = well fitted curve in the direction sought with a large enough effect; inconclusive = small, poorly fitted or top-dose-only effect, or another doubt; inactive = no such curve, though single readings can be large; an effect the other way counts as inactive or inconclusive. Unless noted, % is scaled to controls: 0 for no effect and ±100 for the full control effect; potency is read from the fitted curve at half-maximal effect. A portion of the library, and most or all hits are left out here.
# Value order: N370S GC	FEN1 inh
- CCC(C)(C(=O)NC1CCCC1)N(C(=O)CNC(=O)c1ccccc1)c1c(C)n(C)n(-c2ccccc2)c1=O (configuration not stated)
    8.8%	3.2%
- O=C(Nc1ccccc1)Nc1ccc(S(=O)(=O)N2CCCCC2)cc1
    -1.6%	-5.2%
- COC(=O)CN(c1cccc(C)c1)S(=O)(=O)c1ccccc1
    -4.1%	-15.6%
- CN(Cc1ccccc1)C(=S)Nc1cccnc1
    -0.5%	2.9%
- N#Cc1cn(Cc2cccc(Cl)c2)c2ccccc12
    5.1%	-17.5%
- CS(=O)(=O)N1CCCC(C(=O)NCc2ccc(F)cc2)C1 (configuration not stated)
    3.4%	3.5%
- CCCNC(=O)c1ccc(N2CC3CC(C2)c2cccc(=O)n2C3)c(NC(=O)Nc2ccc(CC)cc2)c1 (configuration not stated)
    -10.9%	9.7%
- CC(=O)Nc1ccc(Nc2cc(N3CCOCC3)c3nonc3c2[N+](=O)[O-])cc1
    -14.2%	5.0%
- Cc1ccccc1C(=O)Nc1ccccc1N1CCN(C(=O)c2ccccc2)CC1
    0.9%	-11.2%
- CC(=O)Nc1ccc2c(c1)nc1n2CCN(C(C)c2ccccc2)C1 (configuration not stated)
    13.5%	-3.9%
- CCOc1ccc(CNC(=O)CCCn2ccc3cc(S(=O)(=O)N4CCCC4)ccc32)cc1
    -15.4%	0.5%
- Cc1cc(NCCCn2ccnc2)n2ncc(-c3ccc(Cl)cc3)c2n1
    -3.8%	-17.2%
- O=C(O/N=C1/CCCc2occc21)c1ccccc1
    10.5%	0.8%
- Cc1ccc(-c2csc(NC(=O)C3=NN(C4CCS(=O)(=O)C4)C(=O)CC3)n2)cc1 (configuration not stated)
    25.8%	5.1%
- Cn1c(CCNC(=O)c2cccs2)nnc1SCC(=O)Nc1nc(-c2ccccc2)cs1
    0.7%	1.2%
- Cc1ccc(N2C(=O)C(Cl)=C(N3CCOCC3)C2=O)c(C)c1
    -0.5%	0.8%
- O=C(O)c1ccc(CSc2nnc(-c3ccncc3)n2-c2ccc(Cl)cc2)cc1
    1.4%	17.4%
- Cc1c(C(=O)N(C)C)sc2c1c(=O)n(-c1ccc(Cl)cc1)c(=O)n2Cc1ccccc1F
    .	-13.2%
- COc1ccc(OCC(=O)Nc2c3c(nn2-c2ccccc2)CS(=O)(=O)C3)cc1
    -6.7%	-2.7%
- COc1ccc(OC)c(-c2cc(C(=O)NCCCn3ccnc3)no2)c1
    -3.6%	-12.0%
- CCC(C)NS(=O)(=O)c1ccc(NC(=O)Cc2ccc(OC)cc2)cc1 (configuration not stated)
    -2.2%	1.4%
- CC1(C)C(=O)OC(c2cccs2)C2(CCCCC2)C1=O (configuration not stated)
    6.9%	-1.6%
- COc1ccc2c3c1O[C@H]1C[C@H](O)C=C[C@@]31CCN(C)C2
    -22.3%	.
- CN1CCN(c2nc3c(c(=O)[nH]c(=O)n3C)n2CC(N)=O)CC1
    -3.2%	5.2%
- O=C(COc1ccccc1)N1CCN=C1SCc1cccnc1
    3.7%	7.0%
- CCOC(=O)C1CCN(C(=O)C2CCN(S(=O)(=O)c3cc(Cl)ccc3OCC)CC2)CC1
    -9.0%	1.0%
- O=C1NC(=O)C2(COC3(CCCC3)OC2)S1
    7.5%	17.1%
- O=C(CSc1n[nH]c(=O)[nH]c1=O)N/N=C/c1ccccc1
    2.0%	-1.0%
- Cc1c(C(=O)N2CC[C@@H](N3CCC(O)CC3)[C@H](O)C2)[nH]c2ccc(Cl)cc12
    -13.6%	-2.5%
- Cc1ccccc1C(O)c1cccnc1 (configuration not stated)
    -2.1%	0.6%

# Ordered by length of the SMILES (rising): six of the compounds above.
# Value order: N370S GC	FEN1 inh
- N#Cc1cn(Cc2cccc(Cl)c2)c2ccccc12
    5.1%	-17.5%
- CS(=O)(=O)N1CCCC(C(=O)NCc2ccc(F)cc2)C1 (configuration not stated)
    3.4%	3.5%
- COC(=O)CN(c1cccc(C)c1)S(=O)(=O)c1ccccc1
    -4.1%	-15.6%
- CC(=O)Nc1ccc2c(c1)nc1n2CCN(C(C)c2ccccc2)C1 (configuration not stated)
    13.5%	-3.9%
- CCC(C)NS(=O)(=O)c1ccc(NC(=O)Cc2ccc(OC)cc2)cc1 (configuration not stated)
    -2.2%	1.4%
- Cn1c(CCNC(=O)c2cccs2)nnc1SCC(=O)Nc1nc(-c2ccccc2)cs1
    0.7%	1.2%

# Other results:
# Value order: N370S GC	FEN1 inh
- COc1ccc(N2CCCC2)c(NC(=O)COc2ccccc2)c1
    -1.6%	1.7%
- O=C(NC1CC2CCCC(C1)N2S(=O)(=O)c1ccccc1)c1ccccc1 (configuration not stated)
    13.8%	-1.5%
- COc1ccc(C(CNS(=O)(=O)c2ccc(C)cc2)N2CCN(C)CC2)cc1 (configuration not stated)
    -11.8%	0.6%
- CNC(=S)Nc1ccc(C23CC4CC(CC(C4)C2)C3)cc1
    12.1%	-6.5%
- CCN(CC)S(=O)(=O)c1ccc(N2CCOCC2)c(NC(=O)c2cc(Cl)c3c(c2)OCO3)c1
    .	-0.4%
- CCOc1cc(C(=O)Nc2cnccn2)cc(OCC)c1OCC
    -5.5%	-3.4%
- COC(=O)c1cnc(N2CCN(c3ccccc3OC)CC2)c2ccccc12
    .	0.2%
- CCCc1cc(=S)n2c([nH]c3ccccc32)c1C#N
    21.7%	-4.2%
- Cc1ccc(S(=O)(=O)N(C)C)cc1NC(=O)COC(=O)CCCOc1ccccc1
    -1.4%	16.6%
- Cc1ccccc1NC(=O)c1cccc2nccnc12
    -0.3%	0.0%
- CCOc1ccc(C(c2c(NC(=O)c3ccccc3)sc(C)c2C)N2CCN(C)CC2)cc1 (configuration not stated)
    15.8µM*	-17.0%
- O=C(NNC1=NCCC1)c1ccc(Br)cc1
    -1.3%	0.4%
- O=C(CSCc1ccccc1)Nc1ccc(S(=O)(=O)N2CCOCC2)cc1
    3.9%	1.6%
- Cc1ccccc1C1CC(c2ccccc2OC(F)F)Nc2ncnn21 (configuration not stated)
    -3.7%	-14.5%
- COCCNC(=O)c1onc(CSc2cccc(Cl)c2)c1C(=O)O
    -8.4%	-2.4%
- COC(=O)c1[nH]c2cc(C)ccc2c1NC(=O)CN1CCN(C(=O)c2ccco2)CC1
    5.7%	6.8%
- CCOC(=O)c1ccc(NC(=O)Nc2cccc(C)n2)cc1
    9.7%	-1.7%
- CN(C)c1ccc(N2CN=C3SCC(=O)N3C2)cc1
    ?	-9.3%
- O=C(/C=C/c1ccc2c(c1)OCO2)NCc1cn2cc(Cl)ccc2n1
    -6.4%	-4.9%
- CCOc1ccc(Cl)cc1/C=N/NC(N)=O
    3.1%	17.0%
- Cc1c2cnn(CC(=O)NCCCN3CC(C)CC(C)C3)c(=O)c2c(C)n1Cc1ccc(Cl)cc1 (configuration not stated)
    -13.4%	14.8%
- CCOc1ccccc1OCC(=O)N/N=C(\C)Cc1ccc(OC)cc1
    3.8%	6.9%
- CC(C)CCNC(=O)CN(CC1CCCO1)C(=O)CCC(=O)Nc1ccccn1 (configuration not stated)
    2.0%	-14.9%
- CN(C)C(=O)N1CCCC(C(=O)NCc2ccccc2Cl)C1 (configuration not stated)
    5.5%	1.5%
- CCOC(=O)c1c(C=O)c(C)n(Cc2ccc(Cl)cc2)c1C
    ?	?
- C=CC[C@@H](CC(=O)NCCO)C(=O)N[C@@H](COC(=O)[C@@H](CC=C)CC(=O)OC(C)(C)C)Cc1c[nH]c2ccccc12
    .	-9.6%
- COc1cccc(CC(=O)Nc2nc(-c3ccc(F)c(F)c3)cs2)c1
    -5.9%	-5.0%
- O=C(NCC1CCCO1)c1ccccn1 (configuration not stated)
    5.2%	-0.1%
- CCCC(O)C(CC)CO (configuration not stated)
    18.4%	.
- Nc1ccn([C@@H]2O[C@H](CO)[C@@H](O)[C@H]2O)c(=O)n1
    2.4%	-3.2%
- O=C(NCc1ccccc1)C1CCCN(S(=O)(=O)c2cccc3nsnc23)C1 (configuration not stated)
    -3.9%	3.7%&18.1%
- CCCCn1c(N)c(N(CC)C(=O)c2cc(S(=O)(=O)N3CCCCCC3)ccc2OC)c(=O)[nH]c1=O
    0.6%	3.4%
- Cc1nnc(NC(=O)Cn2nc(C)c3ccccc3c2=O)s1
    -1.6%	3.9%
- CC(=O)Nc1cccc(-c2csc(NCc3ccco3)n2)c1
    -8.7%	1.1%
- O=C(N/N=C\C1CC=CCC1)c1ccc(Br)o1 (configuration not stated)
    -2.7%	19.8%
- CN1CCN(/N=C2/C(=O)Nc3ccc([N+](=O)[O-])cc32)CC1
    -11.7%	-2.8%
- Cn1cnnc1SCC(=O)NC1CC1
    .	-8.8%
- Cc1nccn1CC(=O)c1ccc(O)c(O)c1
    .	-13.0%
- O=C(CSc1nccn1-c1ccccc1)NCc1ccc(F)cc1
    -3.4%	0.5%
- O=C(NCc1ccc(F)cc1)C(c1cccs1)N(C(=O)c1csnn1)C1CC1 (configuration not stated)
    ?	3.3%
- Cc1ccc(CN2CCSc3ccc(C(=O)N4CCN(c5cc(C)ccc5C)CC4)cc32)cc1
    .	12.4%
- COc1cccc(CNC(=O)C(=O)NCCC2CCCCN2S(=O)(=O)c2ccc(C)cc2)c1 (configuration not stated)
    2.5%	-8.2%
- CCCCNC(=O)N1CCN(Cc2ccc(F)cc2)CC1
    2.4%	-0.7%
- Cc1ccccc1Cc1c(C)nc2nc(SCC(=O)NCc3ccco3)nn2c1C
    -11.5%	-11.1%
- CCCC(=O)Nc1ccc(C(=O)NNC(=O)COc2ccc(Br)c(C)c2)cc1
    4.1%	-8.3%
- CCCCC(=O)Nc1cccc(NC(=S)NC(=O)C(C)C)c1
    -24.3%	-4.9%
- C/C(Cn1nnc2ccccc21)=N\NC(=O)c1ccc(Br)cc1
    -4.1%	1.3%
- Cc1ccc(CCNC(=O)C2CCN(C(=O)N(C)C)CC2)cc1
    5.3%	-2.5%
- CC(=O)N/C(=C/c1ccc(OS(=O)(=O)c2ccc(C)cc2)cc1)C(=O)Nc1ccc(C(=O)O)cc1
    -2.1%	-1.0%
- Cc1nn(CC#N)c(=O)n1-c1ccccc1F
    2.0%	-2.6%
- COc1cccc(NC(=O)Cn2c(CCC(=O)O)ccc2-c2cccs2)c1
    -17.2%	2.8%
- COc1cccc(C(=O)NCc2cn3ccsc3n2)c1
    1.2%	2.7%
- Cc1ccc(-n2cc(-c3ccccc3)c3c(N4CCN(C)CC4)ncnc32)cc1
    ?	-11.2%
- Cc1cc(N2CCCC2=O)cc(C)c1CN1C(=O)c2ccccc2C1=O
    0.8%	7.8%
- N#CCCN(Cc1cccnc1)C(=S)NC(=O)c1ccccc1
    .	9.7%
- CN1CCN(C(=O)c2cnn(-c3ccccc3)c2NC(=O)c2cccs2)CC1
    4.8%	0.0%
- CCOc1cc(/C=C2/NC(=O)N(Cc3ccccc3F)C2=O)ccc1O
    -5.6%	1.4%
- COc1ccc(CCNc2oc(Cc3ccccc3)nc2C#N)cc1OC
    4.1%	-6.4%
- c1cn2cc(CN3CCOCC3)nc2s1
    -0.3%	-0.3%
- CCOC(=O)c1[nH]c(C)c(CCC(=O)Nc2ccc(C(C)=O)cc2)c1C
    .	12.0%

# (cont.)
# Value order: N370S GC	FEN1 inh
- CCOC(=O)c1ccc(N=c2sc(C(=O)OC)cc(=O)n2-c2ccc(C(=O)OCC)cc2)cc1
    0.8%	-16.4%
- CCC(Oc1cccc(Cl)c1)C(=O)N1CCCN(C)CC1 (configuration not stated)
    0.2%	2.6%
- COc1ccc(-n2c(=O)c3ccccc3n(CC(=O)NC3CCCC3)c2=O)c(OC)c1
    -13.5%	-0.8%
- O=C(CCCCCn1c(=O)[nH]c2ccccc2c1=O)NCCCN1CCN(c2ccccc2F)CC1
    10.8%	-2.1%
- O=C(COC(=O)CCc1ccccc1)NC(c1ccccc1)c1ccccc1
    -2.8%	-11.0%
- COCCNc1oc(-c2ccc(C)cc2)nc1C#N
    10.3%	-0.5%
- Cn1c(N2CCOCC2)nc2c1c(=O)n(Cc1ccc(Cl)c(Cl)c1)c(=O)n2C
    -9.9%	1.5%
- Cc1ccc(CNc2nc(-c3cccs3)nc3ccccc23)cc1
    14.1µM*	3.8%
- CCNC(=O)C(=O)NCC1OCCCN1S(=O)(=O)c1cccs1 (configuration not stated)
    -5.2%	-1.9%
- O=C(CCN1C(=O)/C(=C/C=C/c2ccccc2)SC1=S)Nc1cccnc1
    -15.1%	-4.3%
- Cc1cccc(OCc2nnc(SCC(=O)c3cccs3)n2C)c1C
    14.5%	-6.8%
- O=C(C1CCCCC1)N(CCN1CCCC1)c1nc2ccccc2s1
    12.6%	13.1%
- CC(C)(C)c1cc(C(=O)O)nn1-c1ccccc1
    3.7%	-0.7%
- Cc1ccc(C(=O)N2CCN(S(=O)(=O)N3CCCCCC3)CC2)cc1
    -6.3%	-2.0%
- COc1ccc(-c2cc(C3CCN(c4ncccc4[N+](=O)[O-])CC3)[nH]n2)cc1
    18.5%	-9.5%
- CC(C)CCNC(=O)C1CCN(S(=O)(=O)c2ccc3c(c2)CC(C)N3C(=O)C2CCC2)CC1 (configuration not stated)
    -2.9%	-13.9%
- CC1=C(C(=O)Nc2ccccc2C(=O)NC2CCCCC2)SCCO1
    10.6%	16.6%
- COc1ccc(C(C(=O)NCC2CCCO2)N(C(=O)c2snc(C(N)=O)c2N)c2ccc(C)cc2)cc1OC (configuration not stated)
    -11.0%	0.4%
- CCOc1ccc(-c2cc(C(=O)NCCc3ccc(C)cc3)c3ccccc3n2)cc1
    .	6.9%

# Bioassay records as filed in PubChem.
